Bioassay records from PubChem.
VACV Venus inh: qHTS for Stage-Specific Inhibitors of Vaccinia Orthopoxvirus: Venus Reporter Primary qHTS; Vaccinia virus Venus reporter expression, fluorescence; Potency, µM (series often up to 36.5 µM), for the others: at the top dose activity change, negative = inhibition, most hits filed as inhibitors; 0.46% of 330,000 active; AID 720580, 2013; active means well fitted inhibition curve with a large enough effect; inconclusive means small, poorly fitted or top-dose-only effect; inactive means no such curve, though single readings can be large or run the other way; tested in A549 cells; also: nearly all actives have a fitted effect of over 30% in size; inactives centre near -10
Vaccinia mCherry: qHTS for Stage-Specific Inhibitors of Vaccinia Orthopoxvirus: mCherry Reporter Primary qHTS. Potency, µM (highest dose often 36.5 µM), inactives show at the highest dose activity change, negative = inhibition, usual class: inhibitors. 0.63% of 310,000 active. Vaccinia virus mCherry reporter infection, fluorescence; about a quarter of the inactives have no number; active = well fitted inhibition curve with a large enough effect; inconclusive = small, poorly fitted or top-dose-only effect; inactive = no such curve, though single readings can be large or run the other way; tested in A549 cells; also: nearly all actives have a fitted effect of over 35% in size; inactives centre near -10
* hit, by the source's call; i = inactive; ? = inconclusive; nt = not tested or not shown; & = joins results of further samples; [ ] = another dose, or the depositor's remark. % is scaled to controls: 0 for no effect and ±100 for the full control effect; potency is read from the fitted curve at half-maximal effect.

SMILES	VACV Venus inh	Vaccinia mCherry
O=S(=O)(Nc1ccc(O)c(Sc2nc3ccccc3s2)c1)c1ccc(F)cc1	-20%	-2%
CCOC(=O)c1cc2c(=O)n3ccccc3nc2n(Cc2ccco2)c1=NC(=O)c1cccc(Br)c1	4%	-12%
COc1cc(C(=O)OCC(=O)NCc2ccccc2)cc(NC(=O)c2ccco2)c1OC	5%	0%
Cn1ccnc1SCC(=O)n1c2c(c3ccccc31)CCCC2	-21%	i
NC(=O)CSc1ncnc2c1oc1ccccc12	-10%	4%
O=C(NCc1cccc(Cl)c1)C1CCCN(c2ncnc3c2nc2n3CCCCC2)C1 (configuration not stated)	-5%	-9%
O=C(NNC1CC(=O)N(c2cccc(Cl)c2)C1=O)c1cccnc1 (configuration not stated)	0%	-9%
Cc1cc(C)c2nc3nc(C)cc(C)c3c(N)c2c1	?	?
COc1cc2c(cc1OC)C(CC(=O)O)N(C(=O)CC1CCCC1)CC2 (configuration not stated)	-5%	i
O=S(=O)([N-]c1nc2ccccc2nc1-[n+]1ccccc1)c1ccc(F)cc1	-12%	-15%

As a working copy, part of the list above.
SMILES	VACV Venus inh	Vaccinia mCherry
NC(=O)CSc1ncnc2c1oc1ccccc12	-10%	4%
O=C(NCc1cccc(Cl)c1)C1CCCN(c2ncnc3c2nc2n3CCCCC2)C1 (configuration not stated)	-5%	-9%
O=C(NNC1CC(=O)N(c2cccc(Cl)c2)C1=O)c1cccnc1 (configuration not stated)	0%	-9%

Continued:
SMILES	VACV Venus inh	Vaccinia mCherry
COc1ccc(NCc2cccn2-c2nnc(N3CCOCC3)s2)c(OC)c1	3%	0%
Clc1ccc(Cc2nc(-c3ccncc3)no2)cc1	-15%	-7%
Cc1cccc(C)c1N1C(=O)c2ccccc2NC(=O)C1C(=O)NCc1ccco1 (configuration not stated)	-5%	0%
COc1ccc(S(=O)(=O)N(CC(=O)N2CCN(C)CC2)c2ccc(C)cc2)cc1Br	-10%	i
Cc1cc(C)c2oc(C(=O)Nc3ccc(S(=O)(=O)Nc4ncccn4)cc3)cc(=O)c2c1	7%	3%
O=C1NC[C@@H](CCCCN2CCN(CCc3ccccc3)C(=O)C2=O)N(Cc2ccccc2)C1=O	4%	i
CC(C)[C@H](NC(=O)c1ccccc1Cl)C(=O)NC1CCCCCC1	3%	-9%
COc1ccc(OC)c(NC(=S)NCc2ccccc2OC)c1	-5%	i
Nc1nonc1-n1nnc(C(=O)N/N=C/c2cccc(O)c2)c1CN1CCCC1	-21%	-17%
Cc1c(C(=O)N2CCN(c3ccccc3)CC2)sc2ncnc(N3CCN(c4ccccn4)CC3)c12	-6%	i
Cc1c(C)c(C)c(C(=O)c2ccc(NC(=O)c3ccccc3C(=O)O)cc2)c(C)c1C	-5%	-10%
O=C(COC(=O)c1cccc(C(=O)OCC(=O)NCc2ccc(F)cc2)n1)NCc1ccc(F)cc1	-3%	i
Nc1ncncc1-c1ccc([N+](=O)[O-])cc1	-5%	-1%
Cc1ccc(Cn2ccsc2=NC(=O)COC(=O)c2ccc(NC(=O)CC#N)cc2)cc1	-11%	-12%
COC(=O)C(C)NC(=O)COc1ccc2ccccc2c1 (configuration not stated)	-5%	1%
COc1cc(CN2CCNC(=O)C2CC(=O)O)cc(OC)c1 (configuration not stated)	0%	8%
Cc1ccc(NC(=O)c2ccc(=O)[nH]n2)cc1C	6%	-14%
Cc1ccc(NC(=S)/C(=C(\[O-])c2ccc(Cl)s2)[n+]2cccc(CO)c2)cc1C	-5%	i
CCOC(=O)N1CCN(S(=O)(=O)N2CCCC(C(=O)NCc3cc(Br)ccc3OC)C2)CC1 (configuration not stated)	-15%&-18%	-14%&-10%
Cc1ccnc(NCc2cc(Cl)ccc2O)c1	-13%	-5%
CC(=O)c1cccc(NC(=O)c2cc3c(s2)-c2c(C)cccc2OC3)c1	20µM*	11µM*
COc1ccc(OC)c(-c2csc(NC(=O)CN3C(=O)NC4(CCCC4)C3=O)n2)c1	-7%	-12%
Cc1cc(NC(=O)CSCC(=O)N(c2cccc(Cl)c2)C(C(=O)NC2CCCCC2)c2ccc(O)c(O)c2)no1 (configuration not stated)	-26%	?
O=C(O)c1ccc(NC2CC(=O)N(Cc3ccccc3)C2=O)cc1 (configuration not stated)	-4%	-12%
CC(=O)Nc1ccc2c(=O)n(-c3ccccc3)sc2c1	-1%	i
CCOC(=O)N(C(=O)c1ccccc1)c1ccccc1	-9%	-15%
CCc1nc2c(OCCOc3ccc(F)cc3)cccn2c1N(C)C(=O)c1cccs1	-24%	-21%
CN(C(=O)c1cccc(S(=O)(=O)NCc2ccccc2)c1)C1CCCCC1	-12%	-25%
COC(=O)[C@@]12C[C@@H](CC(=O)NCCCN3CCCC3=O)C(=O)N(Cc3ccco3)C1=CCC(C)(C)C2	-16%	i
O=C(NCCCNC(=O)c1cnccn1)c1ccc(Br)cc1	-6%	-4%

Next section; it opens with the two that closed the last part.
SMILES	VACV Venus inh	Vaccinia mCherry
COC(=O)[C@@]12C[C@@H](CC(=O)NCCCN3CCCC3=O)C(=O)N(Cc3ccco3)C1=CCC(C)(C)C2	-16%	i
O=C(NCCCNC(=O)c1cnccn1)c1ccc(Br)cc1	-6%	-4%
OC(c1ccccc1)c1nc(-c2cccc3cccnc23)cs1 (configuration not stated)	3%	-7%
CCOC(=O)C1CCCN(C(=O)Cn2ncc3c(=O)oc4ccc(C)cc4c32)C1 (configuration not stated)	-1%	-21%
COCc1cc(CN2CCCC(CNC(=O)c3ccc(F)cc3)C2)ccc1OC (configuration not stated)	-21%	-22%
Cc1nn(C(C)C)c(C)c1CN1CCCC(C(=O)c2cccc(OC(C)C)c2)C1 (configuration not stated)	-14%	-25%
Cc1ccc(C)c(NC(=O)CN(C)C(=O)COc2ccc3ccccc3c2)c1	-2%	i
CCOC(=O)c1sc(NC(=O)CSc2n[nH]c(CC(C)C)n2)nc1C	-17%	-18%
CCN(C(=O)CSc1nnc(CNc2cccc(OC)c2)n1C1CCCCC1)C1CCS(=O)(=O)C1 (configuration not stated)	-10%	i
NC(=O)c1cnn2c(C(F)(F)F)cc(-c3ccccc3)nc12	-7%	nt
CCSc1nnc(NC(=O)CSc2nccn2-c2cccc(C)c2)s1	-14%	nt
CCC1CCCCN1CCCNC(=O)C1CCN(S(=O)(=O)N2CCCCC2)CC1 (configuration not stated)	-7%	-1%
COc1ccc(S(=O)(=O)N2CCOCC2)cc1C(=O)NCc1c(C)nn(Cc2ccccc2)c1C	2%	-7%
CC[C@]12c3[nH]c4ccc(Cl)cc4c3CCN1C(=O)[C@@H](CC(=O)NCCCOC)C[C@@H]2C(=O)N1CCN(C(=O)c2ccco2)CC1	0%	7%
Cc1cccc(C(=O)C2CCN(S(=O)(=O)c3cccc(C(=O)O)c3)CC2)c1	0%	-17%
Cc1ccnc(Sc2ncccc2[N+](=O)[O-])n1	-5%	-10%
CC(=O)c1cn(CC(=O)NCc2ccco2)c2ccccc12	-21%	i
CCOC(=O)c1c(S(=O)(=O)NCCc2cccs2)c(C)n(C)c1C	-11%	-24%
Cc1cccc(-n2ncc3c(N4CCCCCC4)ncnc32)c1	-1%	-13%
O=C(Nc1c(C(=O)Nc2ccc(F)cc2)oc2ccccc12)c1cc2ccccc2o1	-9%	-13%
COCCN(C(=O)CCSc1ccc(F)cc1)c1c(N)n(Cc2ccccc2)c(=O)[nH]c1=O	-5%	i
CC1=C(/C=C/C(C)=C/C=C/C(C)=C/CO)C(C)(C)CCC1	-6%&-19%&-14%	-6%&-5%&-15%
O=C(CSc1nncs1)Nc1nccs1	0%	-24%
Cc1ccc(Cn2c(=O)n(CCc3ccccc3)c(=O)c3sc4ccccc4c32)cc1	-5%	2%
CC1CC(=O)Nc2ccc([N+](=O)[O-])cc2N1C (configuration not stated)	-8%	i
COc1ccc(N2C(=O)C3C4c5ccccc5C(C=Nc5ccc(C)cc5C)(c5ccccc54)C3C2=O)cc1 (configuration not stated)	-17%	-17%
COC(=O)c1ccccc1NC(=O)c1cc(CN2CCOCC2)on1	2%	-3%
O=[N+]([O-])c1ccc2c(c1)Cc1cc(O)ccc1-2	184%[activator]	-11%
Cc1ccc(N2C(=O)C(CN(C)C)C2c2ccccc2)cc1 (configuration not stated)	-16%	nt
CNC(=O)CC1C(=O)N(c2ccc(OC)cc2)C(=S)N1NC(=O)c1cccc(F)c1 (configuration not stated)	-4%	0%
COc1ccc(S(=O)(=O)N2CCCC2CNC(=O)C(=O)NCc2ccccc2Cl)cc1 (configuration not stated)	-18%	?
COc1ccccc1CNCCCCCCNCCCCCCCCNCCCCCCNCc1ccccc1OC	2%	-12%

2 of the compounds above, with values under each structure.
Order of results: VACV Venus inh	Vaccinia mCherry
- Cc1ccc(Cn2c(=O)n(CCc3ccccc3)c(=O)c3sc4ccccc4c32)cc1
→ -5%	2%
- CC1CC(=O)Nc2ccc([N+](=O)[O-])cc2N1C (configuration not stated)
→ -8%	i

(more compounds)
SMILES	VACV Venus inh	Vaccinia mCherry
COc1ccc(C(=O)/C=C2/c3ccccc3CC(C)(C)N2C)cc1	-26%	-19%
COc1cc(C)ccc1OCCCOc1c(Cl)cccc1Cl	-7%	-11%
CNC(=O)C1CCC(Cn2c(=O)c3sccc3n(CC(=O)Nc3ccccc3)c2=O)CC1 (configuration not stated)	-8%	0%
CC(=O)N1c2ccc(S(=O)(=O)N3CCCCC3)cc2CC1C(=O)NCc1ccc(N(C)C)cc1 (configuration not stated)	-5%	-24%
COc1ccccc1N(Cc1cc2cccc(C)c2[nH]c1=O)C(=O)c1cccc(Cl)c1	?	-28%
CCOC(=O)c1c(C)n(OC)c2ccc3c(no[n+]3[O-])c12	0%	i
COC(=O)N/N=C/c1c(C)c(C(=O)c2ccc(F)cc2)n2ccccc12	-10%	i
C#CCOCCOCCOCCNc1nc(N2CCOCC2)nc(N2CCN(C(=O)[C@H](CCCCN)n3cc([C@@H](N)C(C)CC)nn3)CC2)n1 (some centres not stated)	1%	i
O=C1NC(=S)N/C1=C/c1cccnc1	-16%	-29%
CCN(CC)S(=O)(=O)c1cccc(-c2nnc(SCC(=O)N3CCC(C(=O)O)CC3)n2N)c1	-9%	i
Cc1ccc(S(=O)(=O)CC(C)(O)CS(=O)(=O)c2ccc(C)cc2)cc1	-8%	-8%
O=C(Cn1c2c(c(-c3ccccc3)cc1=O)CCCC2)N1CCCCCC1	-16%	-12%
COc1ccc(OC)c(CCNC(=O)CCc2cn(C)c3ccccc23)c1	-15%	-3%
COc1ccc(C2Nc3ccccc3C(=O)N2NS(=O)(=O)c2ccccc2)cc1OC (configuration not stated)	-11%	-14%
CCCCN1C(=O)C(O)(CC(=O)c2ccc(C(C)(C)C)cc2)c2ccccc21 (configuration not stated)	-6%[7.34 µM]	-9%[7.34 µM]
COc1ccc(C(=O)N2CCCC(Nc3ccc(C)c(C)c3)C2)cc1F (configuration not stated)	-5%	-10%
Cn1ccc2c(-c3ccc(C(C)(C)C)cc3)cc3c(c21)C1CCC3C1 (configuration not stated)	-3%	i
N#Cc1ccsc1NC(=O)CSc1nnc(NC2CC2)s1	-4%	-15%
COCCNC(=O)c1ccc2c(=O)n(CCOC)c(SCC(=O)c3c[nH]c4ccccc34)nc2c1	-12%	-7%
O=C(Nc1ccc(O)cc1C(=O)O)c1cccc(Br)c1	-4%	-14%
CCN(CC)CCn1c2c(c(SCC(=O)Nc3cccc4ccccc34)nc1=O)CCC2	-23%	?
CC(=O)c1cccc(NC(=O)CSc2nnc(C(C)N(C)C)n2-c2ccc(F)cc2)c1 (configuration not stated)	-12%	-23%
Clc1ccc(C2=Nn3c(nnc3-c3n[nH]c4c3CCC4)SC2)cc1	?	nt
OC(CC#CCN1CCCC1)(c1ccccc1)c1ccccc1	-15%	-14%
COCCn1c(SCC(=O)N2CCCC2)nnc1-c1ccoc1C	-9%	-13%
Cn1nc(C(=O)Nc2cccc(C(F)(F)F)c2)c2c1-c1ccccc1S(=O)(=O)C2	-15%	-23%
COc1ccc(C(C(=O)NC(C)(C)C)N(C(=O)CCC(=O)Nc2cc(C)on2)c2ccc(C)c(C)c2)cc1 (configuration not stated)	-1%	-8%
CN(C)CCOC(=O)C12CC3CC(C1)CC(C(=O)OCCN(C)C)(C3)C2	7%[7.34 µM]	-2%[7.34 µM]
COCCNC(=O)CCn1nc(-c2ccc(C)cc2)ccc1=O	-9%	i

Of the compounds above, 2 contain a CF3 group.
SMILES	VACV Venus inh	Vaccinia mCherry
NC(=O)c1cnn2c(C(F)(F)F)cc(-c3ccccc3)nc12	-7%	nt
Cn1nc(C(=O)Nc2cccc(C(F)(F)F)c2)c2c1-c1ccccc1S(=O)(=O)C2	-15%	-23%

No enrichment for hits; about 0.87% have a hit in one of these screens.
